UCH37 inh: blocks the human deubiquitinase UCH37 | Q9Y5K5 | purified proteasome/UCH37, Ub-AMC cleavage fluorescence | inhibition, % (no concentration beside the values) | 330,000 tested, 0.33% active | AID 588478;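 active = mean of two replicates above 20%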;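 also: 0% = compound-free wells with enzyme and 100% = wells lacking proteasome; stock transfer was 100 nL into about 20 µL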
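assay system = human UCH37 enzyme supplied as purified proteasome complex | amount = proteasome at 0.15 nM in the dispensed enzyme solution | schedule = 30 min compound-proteasome preincubation then 25 min substrate reaction, room temperature | measured by = fluorescence, ex 355 nm, em 460 nm | benchmarks = no-proteasome wells (full inhibition) and compound-free wells (no inhibition)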
A1 inh: inhibitors of the anti-apoptotic protein A1, read as caspase activation | caspase activation, % (no concentration beside the values) | 330,000 tested, 0.066% active | MEF A1-2A-BIM cells, Caspase-Glo 3/7 luminescence, 3 h; percent of clofoctol response, vehicle zero | AID 2462;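 active = over half of replicate activation scores above 10%, or exactly half above 10 with the replicate mean above 10; inconclusive = replicate mean below 10 yet half the replicates above 10; inactive = over half of replicates below 10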;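 also: wells of about 30 µL received 50 nL stock; many hits fall short of the cut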
Ecoli growth: E. coli growth inhibition; 330,000 tested, 0.21% active; OD600 absorbance (no concentration beside the values); Escherichia coli growth, OD600, 23 h; stronger effect = lower value;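 active = OD600 absorbance below the run mean of sample wells minus 3.6 SD, in any replicate, cut at about 0.56 in these data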;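 also: stock transfer was 300 nL into about 60 µL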
HNF4A DNA FP: change in binding of human HNF4 alpha to DNA; AID 1224865; 360,000 tested, 0.3% active; activity change, % at 10 µM; HNF4a-FITC DNA binding, fluorescence polarization, 1 h; P41235; in the data active = activity change above about 30%, passing the limit was not always enough;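 also: controls were the assay level and a saturating level of protein; the project sought stronger binding though the title names inhibitors; some compounds called inactive have numbers as strong as hits; positive values seem to mean higher polarization but the record does not say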
Vif TR-FRET: HIV-1 Vif–A3G interaction blockers – biochemical, TR-FRET, GST-Vif 1-94, biotin-A3G peptide, dose response retest, primary screen (AID 1117319). 260,000 tested, 0.57% active. TR-FRET GST-Vif / biotin-A3G peptide binding; higher % means a stronger effect; test concentration not given here; strong numbers were not always called active. inhibition, %, or IC50 in µM where a hit was titrated;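 active = above the screen mean plus three standard deviations and confirmed in dose response; inconclusive = results disagree or hit not tested in dose response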;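 also: Vif residues 1-94 fused to GST binding biotinylated APOBEC3G peptide 110-148; 0% = full assay without inhibitor and 100% = GST in place of GST-Vif; retest series ran down from 100 µM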
LANA-H2B inh: blocks KSHV LANA binding to histone H2A/H2B. inhibition, % (concentration not given with the values). Q9QR71. AID 2629. cell-free LANA-H2A/H2B peptide, fluorescence polarization. 320,000 tested, 0.6% active; in the data active = inhibition mostly above about 10%, no sharp cut-off; inactive = mostly below about 6.7%;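 also: stock transfer was 7.5 nL into about 10 µL; 0% = median of vehicle wells and 100% = median of positive control wells; one replicate is shown; the record names a cut of 25% in any replicate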
Target sequence (Q9QR71 whole entry, looked up): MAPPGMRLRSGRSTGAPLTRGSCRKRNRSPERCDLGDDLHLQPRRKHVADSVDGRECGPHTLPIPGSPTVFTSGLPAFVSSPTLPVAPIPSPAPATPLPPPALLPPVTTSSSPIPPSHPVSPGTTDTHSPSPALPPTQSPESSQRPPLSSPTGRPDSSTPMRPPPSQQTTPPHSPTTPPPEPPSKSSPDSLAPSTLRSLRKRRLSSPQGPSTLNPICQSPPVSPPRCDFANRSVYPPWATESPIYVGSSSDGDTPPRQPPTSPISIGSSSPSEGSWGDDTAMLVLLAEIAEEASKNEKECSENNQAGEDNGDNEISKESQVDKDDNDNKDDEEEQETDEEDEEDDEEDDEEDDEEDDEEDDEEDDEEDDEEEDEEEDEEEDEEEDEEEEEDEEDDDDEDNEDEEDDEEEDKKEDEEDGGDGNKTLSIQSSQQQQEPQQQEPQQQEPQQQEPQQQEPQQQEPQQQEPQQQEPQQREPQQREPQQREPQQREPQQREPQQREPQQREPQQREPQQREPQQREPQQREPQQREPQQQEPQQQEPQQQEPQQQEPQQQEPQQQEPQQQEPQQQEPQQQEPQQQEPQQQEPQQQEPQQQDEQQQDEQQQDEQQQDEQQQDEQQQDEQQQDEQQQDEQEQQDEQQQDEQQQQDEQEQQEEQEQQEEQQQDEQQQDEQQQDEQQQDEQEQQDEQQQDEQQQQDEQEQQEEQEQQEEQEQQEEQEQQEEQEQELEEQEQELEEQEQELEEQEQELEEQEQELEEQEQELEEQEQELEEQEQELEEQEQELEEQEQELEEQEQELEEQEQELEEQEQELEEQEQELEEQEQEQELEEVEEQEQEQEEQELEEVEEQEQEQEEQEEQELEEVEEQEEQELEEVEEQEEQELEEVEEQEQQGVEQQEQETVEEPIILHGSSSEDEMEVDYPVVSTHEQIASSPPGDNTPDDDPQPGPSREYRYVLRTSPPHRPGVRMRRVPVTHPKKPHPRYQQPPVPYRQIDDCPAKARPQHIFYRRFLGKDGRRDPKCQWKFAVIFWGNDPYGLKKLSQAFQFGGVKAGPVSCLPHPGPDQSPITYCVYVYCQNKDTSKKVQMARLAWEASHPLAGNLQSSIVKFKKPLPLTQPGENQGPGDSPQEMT
B2AR ag: agonists of human beta-2 adrenergic receptor inducing internalization. Am2.2-beta2AR cells, FAP receptor internalization, flow cytometry; reference of the scale not given here. 340,000 tested, 0.43% active. P07550. response, % (test concentration not listed);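 active = response above a set limit, near 3 SD of response in nonfluorescent compounds, cut at about 42% in these data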;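 also: stock transfer was 100 nL into about 11 µL; a reference agonist was the positive control; negative values mostly stem from fluorescent compounds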
* hit, by the source's call; ? = inconclusive; . = no result given.

SMILES	UCH37 inh	A1 inh	Ecoli growth	HNF4A DNA FP	Vif TR-FRET	LANA-H2B inh	B2AR ag
CCC(=O)c1ccc(OCCn2cnc3ccccc32)cc1	2.0	0.9	0.67	-2.6	-8.2%	-1.7	-1.8
COc1ccc(CCNC(=O)C(=O)NCc2ccc(C)cc2)cc1OC	0.4	1.2	0.683	0.3	16.4%	-3.6	-27.3
COc1ccc(CNc2nc(NCc3ccc(OC)cc3)n(C(=O)c3ccncc3)n2)cc1	2.6	-0.4	0.677	-1.1	-1.4%	0.2	-8.0
NC(=O)c1nsc(C(=O)N(Cc2ccco2)C(C(=O)NCc2ccc(F)cc2)c2ccc(O)cc2)c1N (stereo unspecified)	-22.1	-1.2	0.681	0.4	-2.4%	-1.4	15.1
Cc1ccc(NC(=O)[C@@H]2CCC(=O)N2C2OC(=O)c3ccccc32)cc1Cl (stereo partly specified)	-1.3	-0.5	0.731	5.8	.	-0.7	2.1
CC1CCN(C2CCN(C(=O)c3ccccc3F)CC2)CC1	6.0	-0.1	0.634	-3.0	1.4%	2.4	0.6
CCOc1ccccc1NC(=O)CN1C(=O)COc2ccc(C)cc21	0.4	0.7	0.667	-0.5	.	-0.1	9.0
Cc1cc(F)c(F)c(C(=O)N2CCN(C)CC2)c1Cl	0.3	0.4	0.713	0.8	0.8%	4.5	2.4
CCCCN(CC)Cc1ccc(CNC(=O)Nc2ccc(OCC)cc2)o1	-0.6	0.2	0.667	1.0	0.2%	-5.9	-6.3
COC(=O)CCNc1n[nH]c(=O)[nH]c1=O	2.5	0.6	0.687	2.2	1.8%	-26.7	1.6
Cc1cc(C)nc(NC(=NCCc2c[nH]c3ccccc23)NC(=O)C(C)(C)C)n1	3.2	-0.9	0.664	-0.9	5.9%	4.0	-14.9
Cc1ccc(N2CC(C(=O)Nc3cc(C)on3)CC2=O)cc1 (stereo unspecified)	1.6	-0.4	0.718	26.7	2.7%	2.5	-0.5
COC(=O)C1C2CC(=O)C(C2)C1C(=O)OC (stereo unspecified)	.	.	.	-2.8	0.7%	.	-3.5
COc1ccc(C2C=C(C34CC5CC(CC(C5)C3)C4)NC(=S)N2)cc1 (stereo unspecified)	2.1	-0.3	0.688	0.7	-6.0%	5.5	-5.0
CC1CC(=O)Nc2ccccc2N1C(=O)CN1C(=O)C(=O)N(C)C1=O (stereo unspecified)	1.2	1.0	0.729	-5.3	3.8%	2.8	-3.0
O=C(O)CCC(=O)Nc1ccc(NC(=O)c2ccc(Cl)cc2Cl)c(Cl)c1	-0.5	-0.3	0.691	0.8	?	-2.6	-4.8
COC(=O)c1cn(NC(=O)CCC2CCCC2)c(=O)c2ccccc12	2.8	2.2	0.701	-0.8	-1.9%	1.0	-8.6
Cc1ccc2[nH]c(=O)c(CNC(C)C)cc2c1	-3.2	0.0	0.739	0.7	22.7%	3.7	-0.4
Cc1ccc(C(=O)O/N=C(\c2ccccc2)c2cccnc2)cc1	.	-0.3	.	-1.9	-7.0%	-9.2	-3.6
O=C(CC(=O)Nc1cccnc1)Nc1cccnc1	0.1	-0.2	0.68	2.0	-8.2%	-0.3	7.2
O=C(O)c1cc(S(=O)(=O)Nc2ccccc2C(=O)O)ccc1O	.	1.1	.	-5.4	10.8%	0.6	-1.3
CCOC(=O)c1c(C)[nH]c(C(=O)COC(=O)c2ccccn2)c1C	-0.5	0.4	0.716	10.4	-1.9%	1.7	1.5
CCn1c(SCc2nc3sc(C(=O)O)c(C)c3c(=O)[nH]2)nc2ccccc21	1.8	1.1	0.692	-1.4	9.9%	-1.3	3.0
COC(=O)c1[nH]c2ccc(C)cc2c1NC(=O)CN1CCN(C(=O)c2ccccc2)CC1	-31.3	-0.4	0.727	-0.6	-4.3%	1.2	1.2
Cc1cc(C)cc(OCC(=O)O/N=C(\N)Cc2ccc([N+](=O)[O-])cc2)c1	.	1.2	.	-0.9	-3.1%	3.2	-1.4
CCc1cccc2c(C(=O)Cn3nnc(-c4ccc(OC)c(OC)c4)n3)c[nH]c12	3.2	-0.5	0.789	3.8	-2.5%	-1.2	8.0
CSc1ccccc1C(=O)OCC(=O)Nc1cccnc1Cl	1.8	-0.1	0.669	-4.6	-17.5%	0.9	6.4
Cc1ccc(NC(=O)NC2CC(=O)N(c3ccc4c(c3)OCCO4)C2)cc1C (stereo unspecified)	2.7	0.8	0.632	4.4	0.2%	0.9	-5.7
CC(C)c1ccccc1NC(=S)NCc1ccccc1F	3.4	1.5	0.701	-3.4	11.2%	-7.3	2.8
CC(=O)Nc1cccc(NCC(=O)Nc2cc(S(=O)(=O)N3CCCCC3)ccc2Cl)c1	4.2	0.1	0.702	4.9	-0.2%	2.4	3.4
CC(=O)N1C2CCCCC2S[C@H]2CCCCC21 (stereo partly specified)	-0.1	-0.6	0.715	1.0	-9.2%	-1.1	3.1
Clc1ccc(CSc2nnc(CN3CCOCC3)n2-c2ccccc2)cc1Cl	-3.2	-0.2	0.753	-0.9	-4.8%	-0.5	-9.8
CN(C)C(CNC(=O)c1cc2ccccc2o1)c1ccco1 (stereo unspecified)	-4.3	0.6	0.684	-1.9	.	1.2	3.8
O=C(O)CCc1c(C(=O)O)[nH]c2ccccc12	0.7	-1.0	0.655	4.5	0.0%	-3.8	-2.1
CCOc1ccccc1OCCn1nnc2ccccc21	2.6	-0.2	0.701	-2.1	3.2%	-3.2	-2.0
O=C1CC[C@@H](CN(Cc2ccccn2)Cc2nc(Cc3cccc(C(F)(F)F)c3)no2)N1	1.0	0.0	.	4.3	-4.4%	-1.3	-7.4
CCOc1cc(C(=O)Nc2nnc(C)s2)cc(OCC)c1OCC	0.9	2.2	0.697	-0.9	-4.9%	3.7	10.9
COc1cc(CCC(=O)Nc2ccc(C)c(S(=O)(=O)N(C)C)c2)cc(OC)c1OC	1.5	-0.4	0.689	-0.2	.	-1.8	-2.9
Cc1ccc(NC(=O)CC2=NC(=O)C(CC(=O)Nc3ccccc3F)S2)cc1 (stereo unspecified)	-21.1	0.9	0.689	0.4	13.9%	-5.4	8.3
CCCCCCOc1ccc(/C(N)=N/O)cc1	-5.5	-2.7	0.645	0.6	1.0%	-1.1	-10.6

Reprinted from the part before: two compounds; new compounds follow.
SMILES	UCH37 inh	A1 inh	Ecoli growth	HNF4A DNA FP	Vif TR-FRET	LANA-H2B inh	B2AR ag
Cc1ccc(NC(=O)CC2=NC(=O)C(CC(=O)Nc3ccccc3F)S2)cc1 (stereo unspecified)	-21.1	0.9	0.689	0.4	13.9%	-5.4	8.3
CCCCCCOc1ccc(/C(N)=N/O)cc1	-5.5	-2.7	0.645	0.6	1.0%	-1.1	-10.6
C/C(=N\NC(=O)COc1ccccc1-c1ccccc1)c1ccccn1	.	-0.7	.	-1.6	-2.0%	-1.0	-0.7
Cc1ccc(C(=O)N2CCN(c3ccccc3F)CC2)cc1S(=O)(=O)N1CCOCC1	-0.2	-0.7	0.645	6.0	-10.9%	-6.2	-0.2
CCOC(=O)N1CCC(Nc2c(NCCCN3CCN(C4CCCCC4)CC3)c(=O)c2=O)CC1	2.3	0.3	0.701	-0.5	12.7%	0.5	10.7
CC(=O)N1N=C(c2ccc(C)o2)CC1c1ccc(Br)cc1 (stereo unspecified)	1.2	0.8	0.672	-0.6	0.4%	-1.2	4.6
CCOc1ccccc1CNC(=O)c1ccc(NC(=O)C2=C(C)OCCS2)cc1	0.5	0.0	0.631	9.6	-0.8%	0.2	9.9
Cc1cnc(CN2CCc3c([nH]c4ccccc34)C2CC(C)C)[nH]1 (stereo unspecified)	-15.0	0.5	0.691	2.1	8.5%	-5.0	12.3
Cc1cc(C)c(C#N)c(SCc2ccc(F)cc2)n1	4.2	0.1	0.709	3.3	-3.2%	2.9	-27.4
CCC(=O)NC(c1cccs1)c1cc(Cl)c2ccccc2c1O (stereo unspecified)	-2.7	1.7	0.695	1.6	.	3.6	-3.2
O=C1CS/C(=N/N=C/c2ccc(OS(=O)(=O)c3ccccc3)cc2)N1	.	-0.9	.	2.2	1.7%	-2.9	1.6
COc1ccc(CCNC(=O)C2CC(=O)N(c3ccc(Br)cc3)C2)cc1OC (stereo unspecified)	5.8	-0.2	0.69	0.5	2.0%	2.7	-7.4
O=C(c1cc(-c2ccncc2)nc2ccccc12)N1CCN(S(=O)(=O)/C=C/c2ccccc2)CC1	4.4	-0.3	.	1.1	-0.3%	0.1	-1.5
COc1ccc([N+](=O)[O-])cc1-n1cccc1	1.9	-0.4	0.735	1.1	3.3%	-4.2	5.9
Cc1ccc(C(C(=O)NC2CCCCC2)N(C(=O)Cc2c[nH]c3ccccc23)c2ccccc2C)o1 (stereo unspecified)	1.3	0.3	0.71	0.3	-4.9%	2.6	4.0
CN(c1ccc(C(=O)N2CCc3ccccc3C2)cc1)S(C)(=O)=O	7.9	-2.9	0.75	-0.1	64.7%	2.2	-4.2
C=CCc1ccccc1OCC(=O)N/N=C/c1ccccc1OCC	.	0.9	.	-1.2	-9.0%	-0.4	-9.7
FC(F)(F)c1cccc(N2CCN(CC3CC4C=CC3C4)CC2)c1 (stereo unspecified)	1.7	0.2	0.663	2.7	2.0%	4.0	-0.8
Cc1ccc(N2CCN(S(=O)(=O)N3CCCCC3)CC2)cc1Cl	4.2	1.7	0.729	-0.1	.	1.5	0.7
CCCCN(C(=O)c1ccc(N2CCCC2=O)cc1)c1c(N)n(CC(C)C)c(=O)[nH]c1=O	3.0	-0.3	0.656	5.9	-8.1%	-484.0	-2.7
COc1ccc(-n2c(SCC(=O)Nc3ccc4c(c3)OCO4)nc3c(c2=O)SCC3)cc1	5.0	0.0	0.722	-0.7	2.7%	-2.1	-19.9
COc1ccc(CCNC(=O)C(=O)NCC2OCCN2S(=O)(=O)c2ccc(OC)c(OC)c2)cc1 (stereo unspecified)	3.9	0.2	0.729	0.5	.	-1.1	18.0
CCc1nnc(NC(=O)CCN2C(=O)C3CCCCC3C2=O)s1 (stereo unspecified)	4.6	-0.1	0.713	-0.7	.	-4.9	-2.4
C/C(CC(=O)Nc1ccccn1)=N\NC(=O)Cc1cccc2ccccc12	.	0.1	.	-1.4	4.8%	0.3	0.5
CC(C)(C)OC(=O)NCCCCCNC(=O)c1[nH]cnc1C(=O)NC1CCN(C(=O)OC(C)(C)C)CC1	-1.0	-0.1	0.693	2.3	.	-2.0	1.5
Cc1cccc(C)c1NC(=O)CSc1nnc(C)n1-c1ccccc1	0.8	-1.3	0.737	-3.6	-3.9%	-0.7	-9.3
CCc1nc(N2CCN(C(C)=O)CC2)c2c3c(sc2n1)CC(C(C)(C)C)CC3 (stereo unspecified)	-1.8	-1.0	0.703	-1.7	5.2%	-9.1	5.6
CC(=O)Nc1ccc(NC(=O)CSc2ccc(C(F)(F)F)cc2[N+](=O)[O-])cc1	6.5	-0.7	0.702	2.2	.	3.2	-3.5
CC[C@H](C)[C@H](NC(N)=O)C(=O)Nc1ccc(OC)c(Cl)c1	2.2	0.3	0.686	4.4	-1.1%	3.5	-1.3
COc1ccc(OC)c(C(c2nnnn2C2CCCC2)N2CCc3ccccc3C2)c1 (stereo unspecified)	5.5	0.5	0.724	2.5	3.1%	0.4	-0.9
C=C(C)C1(O)OC(=O)C=C1OC (stereo unspecified)	.	-0.3	.	-0.6	18.2%	-10.5	11.9
COC(=O)c1ccccc1NC(=S)N(Cc1ccc2c(c1)OCO2)Cc1cc2cc(C)ccc2[nH]c1=O	1.6	1.3	0.74	3.2	.	1.1	1.9

Assay outcomes from PubChem BioAssay.
